fixLJ activator = B. multivorans fixK reporter activation; B. multivorans fixK-promoter GFP reporter, 18 h; active compounds read high; z-score (test concentration not listed); 29,000 tested, 0.3% active; AID 1918990;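 active = replicate mean overnight rise in green fluorescent reporter signal, 3 or more SD over negative controls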;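 also: score is relative to vehicle wells of the plate; 300 nL library stock went into each well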
Active calls of the source: *.

SMILES	fixLJ activator
CCn1c(=N)c(C(=O)NCC2CCCO2)cc2c(=O)n3cc(C)ccc3nc21 (stereo unspecified)	-0.39
Cc1ccc(CN2CCN(C(=O)CCc3cc(=O)[nH]o3)CC2=O)cc1C	-1.69
COc1cccc(-c2ccc3c(N)c(C(=O)Nc4ccc(Cl)cc4F)sc3n2)c1	-1.73
COc1cc(NC(=O)CCc2nc3cccnc3n2Cc2cccs2)cc(OC)c1OC	-1.79
CC(=O)N1CCN(C(=O)NC2(c3cccc(Cl)c3)CC2)CC(O)C1 (stereo unspecified)	0.18
Cc1ccc2nc(N3CCN(c4cccc(Cl)c4)CC3)c(-n3nc(C)cc3C)nc2c1	1.06
COc1cccc(NC(=O)Cn2c(=O)n(CC(=O)NCCc3ccccc3)c(=O)c3sccc32)c1	-5.06
COc1ccc(CNc2nc(-c3ccccc3)nn2C(=O)c2ccccc2OC)cc1	0.5
COc1cc(OC)cc(-c2nc3nc(C)c(CCC(=O)Nc4cc(C)cc(C)c4)c(C)n3n2)c1	-0.36
Cc1ccc(NC(=O)CCNS(=O)(=O)c2cccc3nonc23)cc1Cl	-1.56
COCC1CCCC1Nc1cc(-c2ccccc2F)nc2ccnn12 (stereo unspecified)	-0.09
CCOc1ccc(NC(=O)Cn2cc(C(=O)c3ccccc3)c(=O)c3cc(OC)ccc32)cc1	-2.02
Cc1nn(CCO)c(C)c1-n1ccnc1-c1ccc(OCC(N)=O)cc1	1.14
O=C(Cn1cc(S(=O)(=O)N2CCN(c3ccccc3F)CC2)c2ccccc2c1=O)Nc1ccc(F)cc1Cl	-0.16
O=C(c1cc2c(=O)oc3ccccc3c2s1)N1CCN(c2ccccc2)CC1	1.68
CCCCN(C)CCNC(=O)c1cc(-c2ccc(Cl)s2)nc2ccccc12	-1.52
COc1ccc(CN2CCN(c3ncnc4sc5c(c34)CCCC5)CC2)cc1F	0.34
O=c1oc2ccc3ccccc3c2cc1-c1nnc(Nc2ccc(Cl)cc2Cl)s1	-0.22
CCCCN(CC)CCCNC(=O)c1cn(CC)c2ccc(S(=O)(=O)N3CCc4ccccc4C3)cc2c1=O	-1.29
Cc1nnnn1-c1ccc(CC(=O)N2CCCCC2C(=O)O)cc1 (stereo unspecified)	-0.75
O=C(c1ccc2c(=O)n(CCc3ccccc3)c(=O)[nH]c2c1)N1CCN(c2ccc(Cl)cc2)CC1	-0.01
Cc1ccc(Nc2ncc(C(=O)Nc3ccc(F)cc3F)c3ccccc23)cc1Cl	-0.5
CCc1ccc(NC(=O)C(Cc2ccccc2)NS(=O)(=O)c2ccc3c(c2)CCN3C(C)=O)cc1 (stereo unspecified)	-0.38
COC(=O)c1ccc(CNC(=O)c2nc(Cn3nc(C)c(Br)c3C)no2)cc1	-1.79
CCOC(=O)c1cc2c(=O)n3ccccc3nc2n(CC(C)C)c1=NC(=O)c1c(-c2c(F)cccc2Cl)noc1C	-0.5
CCOc1ccc(NC(=O)CSc2nc(-c3ccccc3)c3cc(OCC)ccc3n2)cc1	-0.8
COc1ccc(NC(=O)CCc2nnc3n(CC(C)C)c(=O)c4ccccc4n23)cc1OC	-1.4
COc1cc(OC)c(NC(=O)c2c3c(nn2C)-c2ccccc2SC3)cc1Cl	1.42
Cc1cccc(Cn2c(=O)n(CCC(=O)NCCc3ccc(Cl)cc3)c(=O)c3sccc32)c1	-1.4
CCC(C(=O)NCCn1nc(C)c(Cl)c1C)n1cccn1 (stereo unspecified)	-0.41
CC(C(=O)Nc1nccs1)N1CCN(c2nccnc2C#N)CC1 (stereo unspecified)	-0.04
CCOc1cc(/C=C(\C#N)C(=O)NCC2CCCO2)ccc1O (stereo unspecified)	1.19
CCN(CC)CCNC(=O)Cn1cnc2sc(C)c(S(=O)(=O)N3CCN(c4ccccc4OC)CC3)c2c1=O	-0.81
O=C1CN(c2ccc(C(=O)N3CCCC(c4ccn[nH]4)C3)cc2)C(=O)N1 (stereo unspecified)	-1.5
Cc1ccc(C)c(N2CCN(C(=O)C(C)n3c(C)c4cnn(-c5ccccc5)c(=O)c4c3C)CC2)c1 (stereo unspecified)	-2.37
Cc1ccc(N2C(=O)C(CC(=O)Nc3ccc(F)cc3)N(Cc3ccc4c(c3)OCO4)C2=O)cc1 (stereo unspecified)	-1.27
COc1cc2c(cc1OC)C1(CCN(C(=O)Cc3ccncc3)CC1)OCC2	-0.94
CC(C)NC(=O)CCSc1nc(-c2ccc3c(c2)OCO3)cc(C(F)(F)F)n1	-1.04
CCc1nn(CC(=O)NCc2ccc(OC)cc2OC)c(=O)c2cc3c(OC)cccc3n12	-0.44
COc1ccc(-c2[nH]c3ccccc3c2SCCNC(=O)c2cc(OC)c(OC)c(OC)c2)cc1	0.44
CC(C)c1ccccc1NC(=O)CSc1nnc(COc2ccccc2Cl)o1	-2.12
CC(C)C(=O)Nc1cccc(C(=O)Nc2nnc(C(F)(F)F)s2)c1	-0.95
Cn1c(=O)c2c(-c3ccc(Cl)cc3)ccnc2n(C)c1=O	0.23
Fc1ccc(N2CCN(Cc3nnc(-c4ccccc4Cl)o3)CC2)cc1	-0.36
O=C(Cc1csc(-c2ccccc2)n1)NCCc1noc(C2CCC2)n1	-1.03
O=c1n(Cc2ccc(Cl)cc2)c2ccccc2c2nc(-c3ccccc3)nn12	-0.3
COc1cc(-c2nc(Cn3nnc(C(=O)Nc4ccccc4C)c3C)c(C)o2)cc(OC)c1OC	-1.41
CC(C)=CCOC1CCOCC1NC(=O)c1ccc2nc(C)[nH]c2c1 (stereo unspecified)	-1.5
O=C(NCc1cccc(Cl)c1)c1ccc2nc(N3CCCCC3)sc2c1	-0.18
Cc1cc2nc(-c3ccc(OCc4ccccc4)cc3)cc(C(F)(F)F)n2n1	-0.63
Cc1ccc(CCNC(=O)c2ccc3c(=O)n(-c4ccccc4)c(=O)[nH]c3c2)cc1	1.01
COc1ccc(Cn2c(=O)c3cccnc3n(Cc3cccc(OC)c3)c2=O)cc1	-0.24
O=C(Nc1ccc(NC(=O)c2ccc(Br)cc2)c(Cl)c1)c1ccc(Br)cc1	-0.4
CSc1ccc(-c2ccc(C(=O)NC3CCN(CCO)CC3)cc2)cc1	-1.15
CN(C)S(=O)(=O)N1CC2CCC(C1)C2NC(=O)CNC(=O)c1ccccc1 (stereo unspecified)	-0.93
CCCCN1CC2(CCCN(C(=O)c3ccc[nH]3)C2)CCC1=O (stereo unspecified)	-1.52
CCc1ccc(Oc2nc3c(C)cccn3c(=O)c2/C=C(\C#N)c2nc3ccccc3s2)cc1	-0.63
COc1ccc(-c2nn(-c3ccc(F)cc3)c3c2cnc2ccc(F)cc23)cc1OC	-1.53
CCN1CC[C@@H]2CC(N3CCOCC3)CC[C@@]2(C(=O)NCCOc2ccccc2)C1 (stereo partly specified)	-0.23
Cc1ccc(OCc2cc(=O)n3c(-c4ccccc4)csc3n2)cc1	-0.15
(list continues)
SMILES	fixLJ activator
CCN(CC)C(=O)c1ccc(NC(=O)CCn2nc(-c3ccc(C)cc3)c3ccccc3c2=O)cc1	-2.54
Cc1ccc(NC(=O)C2CCCN(c3cnccn3)C2)c(C)c1 (stereo unspecified)	-0.87
COc1cc(NC(=O)Cn2c(=O)n(Cc3ccccc3OC)c(=O)c3cccnc32)cc(OC)c1	-0.46
CCOC(=O)c1ccc(O)cc1	-0.7
Cc1cc(CC2CN(c3ncccc3C(N)=O)CC2O)on1 (stereo unspecified)	-0.34
CCCc1cc(=O)[nH]c(Nc2ccccc2O)n1	0.08
C[C@]12CCC3c4ccc(O)cc4CCC3C1C[C@@H](O)[C@@H]2O (stereo partly specified)	-1.82
CCCCOc1ccc(C(=O)Nc2sc3c(c2C(=O)OCC)CCCCC3)cc1	-1.1
CCOc1ccc(C2c3c(oc4ccc(C)cc4c3=O)C(=O)N2Cc2ccc3c(c2)OCO3)cc1OC (stereo unspecified)	-0.26
CCN(C(=O)c1cn(CC(C)C)c(=O)c2cc(OC)c(OC)cc12)c1cc(OC)ccc1OC	-1.34
Cc1oc(-c2cccc(Cl)c2)nc1CSCC(=O)NCc1ccccc1Cl	-0.44
Cc1cc(CC2CN(C(=O)COc3ccccc3C)CC2O)n[nH]1 (stereo unspecified)	-2.29
CN1C2CCC1CC(OC(c1ccccc1)c1ccccc1)C2 (stereo unspecified)	-1.33
O=C(c1cc2c(=O)oc3ccccc3c2s1)N1CCN(c2cccc(Cl)c2)CC1	0.96
CCN(c1ccccc1)S(=O)(=O)c1cc(Br)cc2c1N(C(=O)C1CC1)CC2	0.54
CCCNc1ccc(C(=O)N2CCC(N3CCOCC3)CC2)cn1	-0.96
Cc1nc2nc(NC(=O)c3ccc(Cl)cc3)[nH]n2c(=O)c1Cc1ccccc1	-2.28
CCN(Cc1ccccc1)C(=O)Cn1c(=O)n(-c2ccc(C)c(C)c2)c(=O)c2c(C)c(C)sc21	-0.69
COc1ccc(-n2nc(C(=O)NCCCOC(C)C)c3c4ccccc4n(C)c3c2=O)cc1	-0.11
CC(C)C1=NOC(C(=O)NCC2CCN(C(=O)c3cc(C4CC4)[nH]n3)CC2)C1 (stereo unspecified)	-1.5
CC(C)C(=O)N1CCn2nc(CNC3CSCCSC3)cc2C1	-0.03
CCC(CC)C(=O)Nc1ccc(-c2cn3cccnc3n2)cc1	-0.49
CN1CCC2(CC1)OCCc1cc(C(=O)N3CCCC(O)C3)sc12 (stereo unspecified)	0.36
COc1ccc(C2=C(Nc3ccc(C)c(C)c3)c3ccccc3C2=O)cc1	-1.95
O=S(=O)(c1ccc2c(c1)CCN2)N1CCCCCC1	-0.38
CC1=C(c2ccc(C)c(C)c2)S(=O)(=O)N=C1N1CCC(C(=O)NCCc2ccc(Cl)cc2)CC1	1.4
O=C(O)COc1ccc(Cl)cc1CN1CCC(N2CCCCC2)C1 (stereo unspecified)	-3.38
Cc1c(C(=O)OC2CCC(C)CC2)[nH]c2c1C(=O)CC(c1ccc(F)cc1)C2 (stereo unspecified)	-0.33
Cc1ccc(N(CC(=O)NCCc2ccccc2C)S(=O)(=O)N(C)C)cc1	-0.72
O=C(CSc1nnc(-c2ccc(F)cc2)o1)N1CCCc2ccccc21	-0.7
Cc1ccc(NC(=O)CSc2nc(-c3ccc(F)cc3)cc(C(F)(F)F)c2C#N)cc1	-4.19
Cc1ccc(-c2nc3sccn3c2Nc2ccccc2C)cc1	0.09
Cc1cc(C(=O)NC2COCC2Cc2ccncc2)n(C)n1 (stereo unspecified)	1.31
CCCN1CCC(N2CC(O)C(Cc3cnccn3)C2)CC1 (stereo unspecified)	-1.46
COc1ccc2c(c1)c(=O)c(S(=O)(=O)c1ccc(Cl)cc1)cn2Cc1cc(C)ccc1C	0.01
COc1cc(C(=O)Nc2ccc3oc(-c4ccccc4)nc3c2)cc(OC)c1OC	-0.13
O=c1c2ccccc2n(Cc2c(F)cccc2Cl)c(=O)n1Cc1ccccc1	0.41
Cc1ccc(Sc2c(C)nn(C(=O)c3ccc(Cl)cc3)c2C)cc1	0.43
CCn1c(C(=O)N2CCCC(C(=O)N3CCN(c4ccccc4)CC3)C2)cc2sccc21 (stereo unspecified)	-0.64
CCc1ccccc1NC(=O)Nc1ccc2snnc2c1	-6.15
CCS(=O)(=O)N1CCC2(CC1)OCCc1c2[nH]c2ccccc12	0.65
Cn1cc(C(c2ccccc2)c2ccc(Cl)s2)c2ccccc21 (stereo unspecified)	-2.15
COc1cc2c(cc1OC)C1(CCN(C(=O)C3CCNCC3)CC1)OCC2	-1.34
COc1ccc(OCCCn2c(=O)oc3ccc(C)cc32)cc1	1.28
CCc1ccc(-n2c(=O)c3c4c(sc3n(Cc3ccccc3C#N)c2=O)CCC4)cc1	0.56
CC(C)CC(=O)Nc1cccc(-c2nc3ccccc3[nH]2)c1	-2.14
Cc1n[nH]c(C)c1CCNC(=O)N1CCN(C2CCCC2)C(=O)C1	-0.15
Cc1cc2oc(C(=O)N(Cc3ccc(N(C)C)cc3)CC3CCCO3)c(C)c2cc1Cl (stereo unspecified)	0.8
COc1ccc(CCNC(=O)CN(c2ccccc2OC)S(=O)(=O)c2ccc(C)cc2)cc1	-1.71
COc1cccc(NC(=O)Cn2cc(C(=O)c3ccco3)c3ccccc32)c1	0.79
Cc1cc(C(=O)N(CCN2CCOCC2)Cc2ccco2)n[nH]1	-1.4
CCOC(=O)C1CCN(c2c(C(=O)c3ccc(OC)cc3)cnc3ccccc23)CC1	0.35
O=C(CN(Cc1ccccc1)C1CCS(=O)(=O)C1)N1CCCCCC1 (stereo unspecified)	0.13
COCc1cc(C)n(CC(=O)Nc2ccc(NC(C)=O)cc2)c(=O)c1C#N	-1.4
CCc1n[nH]c(CN(Cc2ccccn2)Cc2sccc2C)n1	-3.53
Cc1ccc(-c2nc3cccc(C)n3c2Nc2ccc3c(c2)OCO3)o1	0.03
O=C(Cn1cc(C(=O)c2ccco2)c2ccccc21)Nc1ccccc1Cl	0.41

From PubChem BioAssay

A portion of the library, so the mix of outcomes need not match the whole.
